Lassa entry inh = blocks Lassa virus binding to or entry into cells; Lassa virus pseudotype entry inhibition, cell reporter; control for the full effect not named in the record; actives 1.2% (n = 300,000); Potency, µM (series often up to 37.9 µM), inactives show at the top dose activity change, negative = inhibition, hits mostly inhibitors; AID 540256; active means well fitted inhibition curve with a large enough effect; inconclusive means small, poorly fitted or top-dose-only effect, or effect the other way; inactive means flat fitted curve, though single readings scatter; tested in HEK293 cells; further: on the % scale 0 is the no-effect control and ±100 the full control effect; nearly all actives have a fitted effect of over 50% in size; luciferase read-out
SARS PLpro yeast = inhibitors of SARS-CoV papain-like protease in yeast | Potency, µM (top dose mostly 32.9 µM), for inactives: at the highest dose activity, positive = growth rescue | actives 0.19% (n = 330,000) | AID 485353 | S. cerevisiae expressing SARS-CoV PLpro, growth rescue; control for the full effect not named in the record; further: 0% is about no effect; nearly all actives have a fitted effect of over 55% in size; growth read by luminescence after 48 h
Cruzain noTriton = cruzain (T. cruzi) inhibition without detergent; purified cruzain, Z-FR-AMC fluorescence, no detergent; actives 2.3% (n = 200,000); AID 1476; Potency, µM, for the others: max response, negative = inhibition, actives largely listed as inhibitors; P25779; active means well fitted curve in the direction sought with a large enough effect; inconclusive means small, poorly fitted or top-dose-only effect, or another doubt; inactive means no such curve, though single readings can be large; an effect the other way counts as inactive or inconclusive;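 further: plate controls were enzyme without inhibitor for no effect and buffer without enzyme for full effect; nearly all actives have a fitted effect of over 40% in size; top concentration of the series not given in the record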
Target sequence (P25779 123-467 limits assumed): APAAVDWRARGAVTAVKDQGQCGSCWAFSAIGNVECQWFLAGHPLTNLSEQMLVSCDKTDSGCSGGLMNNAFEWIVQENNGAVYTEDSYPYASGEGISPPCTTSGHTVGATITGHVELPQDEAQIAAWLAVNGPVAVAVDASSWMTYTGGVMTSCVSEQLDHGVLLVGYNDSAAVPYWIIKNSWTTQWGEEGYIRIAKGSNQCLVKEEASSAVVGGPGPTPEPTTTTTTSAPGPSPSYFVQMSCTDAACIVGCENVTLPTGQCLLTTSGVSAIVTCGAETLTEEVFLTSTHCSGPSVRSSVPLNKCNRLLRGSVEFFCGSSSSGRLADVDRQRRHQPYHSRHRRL
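Purified cruzain at 1.5 nM, pre-incubated 15 min with compound at room temperature in 100 mM sodium acetate pH 5.5, 5 mM DTT, 0.00005% Triton X-100. Reaction started with 2 uM Z-FR-AMC; AMC fluorescence increase over 60 s gives rate.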
2A StopGo = FMDV 2A StopGo reporter, luciferase signal. Potency, µM (doses to about 57.9 µM), for inactives: top-dose signal change, negative = less light. actives 1.2% (n = 410,000). human cells with a luciferase reporter of 2A StopGo recoding; control for the full effect not named in the record. AID 1159524; active = well fitted falling curve with a large enough effect; inconclusive = small, poorly fitted or top-dose-only effect; inactive = no such curve, though single readings can be large or run the other way; tested in HEK293T cells; further: on the % scale 0 is the no-effect control and ±100 the full control effect; nearly all actives have a fitted effect of over 45% in size; luciferase light after 4 h
NS1 inh = influenza NS1 inhibition. S. cerevisiae slowed by influenza A NS1, growth recovery by OD600. AID 2326. Potency, µM (highest dose often 46.1 µM), for the others: at the highest dose activity, positive = more growth. actives 0.4% (n = 270,000); further: actives are rising curves; nearly all actives have a fitted effect of over 50% in size
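Growth recovery, yeast-based: influenza A NS1 expressed in S. cerevisiae causes slow growth, and suppressors are detected by OD600. The parent strain without NS1 is used as positive control.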
MARV entry inh = blocks Marburg virus binding to or entry into cells; Marburg virus pseudotyped entry inhibition, cell reporter; control for the full effect not named in the record; about a third of the inactives were read at about 46 µM; Potency, µM (titrated, usually from 37.8 µM), inactives show at the highest dose activity change, negative = inhibition, usual class: inhibitors; actives 1.8% (n = 300,000); active = well fitted inhibition curve with a large enough effect; inconclusive = small, poorly fitted or top-dose-only effect, or effect the other way; inactive = flat fitted curve, though single readings scatter; tested in HEK293 cells; about a fifth of its hits are not listed in these tables; further: on the % scale 0 is the no-effect control and ±100 the full control effect; luciferase read-out
Cruzain inh Det = cruzain (T. cruzi) inhibition with detergent. purified cruzain, Z-FR-AMC fluorescence, 0.01% Triton. P25779. AID 1478. actives 0.43% (n = 200,000). Potency, µM, for the others: max response, negative = inhibition, most hits filed as inhibitors; active means well fitted curve in the direction sought with a large enough effect; inconclusive means small, poorly fitted or top-dose-only effect, or another doubt; inactive means no such curve, though single readings can be large; an effect the other way counts as inactive or inconclusive;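 further: plate controls were neutral wells for no effect and buffer without enzyme for full effect; nearly all actives have a fitted effect of over 40% in size; top concentration of the series not given in the record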
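Purified cruzain (1.5 nM final) was preincubated with compounds for 15 min at room temperature in 100 mM sodium acetate pH 5.5, 5 mM DTT, 0.01% Triton X-100. Reaction started with 2 uM Z-FR-AMC; AMC fluorescence change over 60 s gave activity.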
RE007 growth inh = less growth of the S. pombe RE007 Vpr strain; S. pombe RE007 Vpr strain, BacTiter-Glo ATP luminescence, 24 h; control for the full effect not named in the record; Potency, µM (top dose mostly 92.2 µM), without a hit: top-dose activity change, negative = less growth; actives 0.21% (n = 360,000); AID 651644; active = well fitted falling curve with a large enough effect; inconclusive = small, poorly fitted or top-dose-only effect; inactive = no such curve, though single readings can be large or run the other way;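 further: on the % scale 0 is the no-effect control and ±100 the full control effect; nearly all actives have a fitted effect of over 50% in size; the assay follows cell death caused by Vpr and the record does not say whether a fall means rescue or toxicity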
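Fission yeast strain RE007, carrying one chromosomally integrated HIV-1 vpr copy, was seeded at OD 0.01 in PMG+AL medium with 23 nL pinned compound. After 24 h at 30 °C and 99% humidity, viability was read by BacTiter-Glo luminescence.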
The depositor's hits bear a star; ? = inconclusive; . = no result given; & = joins results of further samples; [ ] = dose if it differs, or a comment. Unless noted, the call rests on the fitted dose curve; in most records, active means well fitted rising curve with a large enough effect; inconclusive means small, poorly fitted or top-dose-only effect; inactive means no such curve, though single readings can be large or run the other way. Potency means the concentration at half of the fitted maximal effect.

canonical_smiles | Cruzain inh Det | SARS PLpro yeast | MARV entry inh | RE007 growth inh | Lassa entry inh | Cruzain noTriton | NS1 inh | 2A StopGo
CC(=O)N(c1nc(/C=C\C(=O)O)cs1)c1ccccc1F | . | -7% | . | 2% | . | . | ? | -14%
CC(C)(C)c1ccc(OCCNCc2ccccc2)cc1 | . | 1% | ? | 1% | -7% | . | -15% | -8%
O=C(Cn1nc(-c2ccco2)ccc1=O)Nc1cc(C(F)(F)F)ccc1Cl | . | -1% | -4%[46.1 µM] | -3% | -4%[46.1 µM] | . | -5% | -7%
CC(C)(O)C(=O)NNC(=S)NCc1ccco1 | . | 0% | . | -5% | . | . | 4% | 5%
CCOC(=O)NCN1C(=O)C2C3C=CC(C3)C2C1=O (stereo not given) | 4.3% | 16% | 0% | 10% | ? | 1% | -41% | -9%
CC(/C=C/c1ccc(Cl)o1)=C\C(=O)O | -5.5% | -4% | 12% | -14% | 11% | -3% | -200% | -6%
CCN(CC)c1ccc(C=O)c(OC)c1 | . | 0% | -16%[46.1 µM] | 3% | 3% | . | -2% | -6%
CC1CCCCC12NC(=O)N(CC(=O)c1ccc(Cl)s1)C2=O (stereo not given) | . | -7% | . | -3% | . | . | 18% | -6%
O=C(O)[C@H](Cc1ccccc1)NC(=O)N1CCN(c2cccc(C(F)(F)F)c2)CC1 | . | 2% | . | -9% | . | . | 7% | -5%
COc1ccc2cc(CNCCOCCOCCNCc3ccc4cc(OC)ccc4c3)ccc2c1 | . | . | ? | 11% | ? | . | . | 40µM*
CC(=O)c1c(C)[nH]c(C(=O)CSc2nnc(N)s2)c1C | . | 0% | 3% | 0% | 1% | . | . | 6%
CCc1ccc(CCC(=O)Nc2ccc(C)cc2C)o1 | -2.1% | 1% | 4% | -3% | -2% | -4% | 3% | -21%
O=C(CCN=C1NS(=O)(=O)c2ccccc21)OCC(=O)c1ccc(F)cc1 | . | 1% | 1%[46.1 µM] | 2% | 7% | . | . | -11%
CCN1c2ccccc2-c2nc3ccccc3n2C1c1cccnc1 (stereo not given) | -5.1% | -4% | ? | -3% | 1% | 19% | -108% | .
COC(=O)C(O)(c1ccc(N(C)C(=O)c2cccs2)cc1)C(F)(F)F (stereo not given) | . | -7% | 3%[14.2 µM] | -11% | ? | . | -47% | ?
O=C(Nc1ncccc1O)c1ccc(Oc2ccccc2)cc1 | . | -77% | -29%[46.1 µM] | -26% | ? | . | -100% | -3%
COc1cccc(NC(=O)C(C)N2C(=O)c3ccccc3C2=O)c1 (stereo not given) | . | -2% | 9% | -3% | 7% | . | 1% | 8%
N#Cc1cc(-c2cccc(Cl)c2)c[nH]c1=O | 4.2% | 4% | -4% | 20% | -4% | -2% | 1% | 3%
CNc1ccc(/C=C/C(=O)c2ccc(C)cc2)cc1[N+](=O)[O-] | -9.0% | 14% | ? | 1% | -16% | 8% | -3% | 4%
Cc1cc(C)c(OCC(=O)N(C)CC(=O)Nc2ccc(N3CCOCC3)cc2)c(C)c1 | . | -4% | 7% | 16% | -6% | . | 2% | -14%

Structures from the list above that have an aryl methoxy group (three):
canonical_smiles | Cruzain inh Det | SARS PLpro yeast | MARV entry inh | RE007 growth inh | Lassa entry inh | Cruzain noTriton | NS1 inh | 2A StopGo
CCN(CC)c1ccc(C=O)c(OC)c1 | . | 0% | -16%[46.1 µM] | 3% | 3% | . | -2% | -6%
COc1ccc2cc(CNCCOCCOCCNCc3ccc4cc(OC)ccc4c3)ccc2c1 | . | . | ? | 11% | ? | . | . | 40µM*
COc1cccc(NC(=O)C(C)N2C(=O)c3ccccc3C2=O)c1 (stereo not given) | . | -2% | 9% | -3% | 7% | . | 1% | 8%

Next section.
canonical_smiles | Cruzain inh Det | SARS PLpro yeast | MARV entry inh | RE007 growth inh | Lassa entry inh | Cruzain noTriton | NS1 inh | 2A StopGo
CCOc1cc(CNCCCN2CCOCC2)cc(Br)c1OCc1ccccc1Cl | . | -2% | ? | 23% | ? | . | -11% | -29%
[O-]/C(=C(\C(=S)NCc1ccco1)[n+]1ccccc1)c1ccccc1Br | -1.6% | -2% | 2%[46.1 µM] | -11% | 15% | -14% | 20% | -1%
COc1ccc(C(=O)C(OC(=O)c2ccccc2Cl)c2ccccc2)cc1 (stereo not given) | -4.2% | -4% | -2% | ? | 10% | -28% | 3% | 27%
Cc1cccc(N2CCN(c3ccc4cc(S(=O)(=O)N5CCCCC5)ccc4n3)CC2C)c1 (stereo not given) | . | 12% | -4%[46.1 µM] | 6% | 0%[46.1 µM] | . | 4% | ?
CCN(CC)C(=O)CSC(Nc1cccc(F)c1)=C(C#N)C#N | . | 1% | 13%[46.1 µM] | -22% | ? | . | 4% | ?
O=C(O)C1=C[C@H](c2csc3ccccc23)C[C@H](OCc2ccc(CO)cc2)O1 | . | -2% | . | 17% | . | . | 2% | -4%
CC1(C)CC(NC(=O)c2ccccc2F)CC(C)(C)N1 | . | 9% | 10% | 6% | ? | . | 3% | 5%
CCOc1ccc(/C=N/OC(C)C(=O)NCc2ccc3c(c2)OCO3)cc1 (stereo not given) | -4.4% | 4% | -6% | -5% | 11% | -4% | 2% | -26%
Cc1ccc(Cl)cc1N1CCN(CCCNC(=O)c2nnc(Cc3cccc(Cl)c3)o2)CC1 | -5.6% | . | ? | . | ? | 2% | . | ?
COc1ccc(OC)c(NC(=O)CSc2nnc(C3CCCCC3)n2N)c1 | . | 4% | 8%[46.1 µM] | 0% | 14% | . | . | -21%
COC(=O)C1(CCSC)NC(c2ccccc2OC)C2C(=O)N(C)C(=O)C21 (stereo not given) | -1.2% | 1% | 11%[46.1 µM] | -17% | 27% | -7% | -2% | 14%
COc1cccc(C(=O)NNC(=O)C2CC(C)=C(C)CC2C(=O)O)c1 (stereo not given) | 3.5% | 2% | -17% | 1% | 5% | -6% | 13% | -10%
O=C(NCCc1c[nH]c2ccccc12)C1CCN(Cc2ccc(Br)cc2)CC1 | . | 0% | . | -15% | . | . | -20% | -23%
CCCCN(Cc1ccccc1)C1CCN(CCc2ccccc2)CC1 | -0.9% | 11% | ? | 9% | ? | -7% | 13% | -23%
CC(c1ccccc1)n1c(Br)nc2c1c(=O)[nH]c(=O)n2C (stereo not given) | . | 7% | -3% | 7% | -6% | . | 19% | -7%
CCCNC(=O)c1ccccc1NC(=O)COc1cccc2c1OC(C)(C)C2 | . | 1% | ? | 1% | ? | . | . | -7%
CCC(C)(C)n1nnnc1C(c1ccc(OC)c(OC)c1)N1CCN(c2ccc(F)cc2)CC1 (stereo not given) | -4.6% | -19% | -18%&-18%[46.1 µM] | 7% | ? | 127% | -12% | -20%
COc1ccc(Cc2[nH]n3c(=O)cc(C)nc3c2-c2ccccc2)cc1 | . | 0% | ? | -9% | -7%[46.1 µM] | . | 1% | -12%
Cc1cccc(N2CCN(C(=O)CNC(=O)C3CCCCC3)CC2)c1C | . | 2% | ? | 2% | ? | . | . | -16%
Cc1ccc(S(=O)(=O)Nc2cccnc2)cc1C | . | 6% | 1% | -14% | ? | . | 14% | 20%
O=C(NCCc1c[nH]c2ccccc12)C(=O)NCC(c1ccco1)N1CCN(c2ccccc2F)CC1 (stereo not given) | -3.5% | -5% | 29% | 17% | ? | 12% | 16% | ?
COC(=O)CCC(=O)NNC(=O)c1cccc(Br)c1 | -1.5% | -2% | 13% | 5% | 1% | -2% | 20% | -14%
Cc1ccc2ncccc2c1NC(=S)NC(=O)c1ccccc1 | . | 9% | -10%[46.1 µM] | 14% | -9% | . | . | ?
O=C(CSc1nc2c(sc3ccccc32)c(=O)n1CCO)NCc1ccco1 | 5.2% | -2% | ? | -16% | -11% | ? | 9% | 1%
Cc1ccc(C)c(/C=N/NC(=S)NC(C)C)c1 | -2.6% | 7.1µM* | 1% | -10% | 12% | -3% | -8% | 0%
COc1ccc(OC)c(-c2c[n+](=O)c3c(n2[O-])CCCC3)c1 | 0.3% | 5% | 19% | 3% | 17% | -14% | 0% | -1%
O=C(CN1CCCC1=O)NC1CCCc2c1cnn2-c1cc(F)cc(F)c1 (stereo not given) | . | 14% | 23%[46.1 µM] | 9% | 32%[46.1 µM] | . | 18% | -1%
Cc1cccc(C(=O)Nc2ccccc2NC(=O)c2cccc(C)c2)c1 | . | -4% | -5%[46.1 µM] | ? | 10%[46.1 µM] | . | -4% | -22%
O=C1N(c2ccccc2)C(c2cccnc2)N2CCCN12 (stereo not given) | . | 5% | 0% | 101% | ? | . | . | 15%
Cc1ccc(-c2n[nH]c(=S)n2/N=C/c2sccc2C)cc1 | . | -2% | 2%[46.1 µM] | -7% | . | . | 4% | -16%
Cc1nc2c(-c3ccc(Cl)cc3)c(C)[nH]n2c(=O)c1Cc1ccccc1 | . | -9% | 4µM* | 1% | ? | . | . | -29%
Cc1c2c(n3c(nc4ccccc43)c1C#N)N(CCN1CCOCC1)CC2 | . | -3% | 3%[46.1 µM] | -8% | 22% | . | 5% | 3%
COCCNC(=O)CCCn1c(SCc2ccccc2C)nc2c(sc3ccccc32)c1=O | 2.5% | . | ? | . | ? | ? | . | ?
O=C(CSc1nnc(SCc2ccc(Cl)cc2)s1)N/N=C/c1c[nH]c2ccccc12 | -4.3% | 11% | ? | -21% | ? | ? | 10% | ?
COc1cc(Br)cc2cc(C(=O)OC3CCN(C)CC3)c(=O)oc12 | . | . | -28% | -6% | 1% | . | . | ?
O=S1(=O)CCOC[C@H](c2ccccc2)N1Cc1cccc(F)c1 | . | -7% | . | 8% | . | . | -3% | 10%
Cc1cccc(-n2ncc3c(N4CC(C)CC(C)C4)ncnc32)c1 (stereo not given) | -6.7% | -11% | . | -4% | . | -9% | -3% | 9%
CN(CCC#N)C(=O)COC(=O)c1ccc(Cl)c(S(=O)(=O)N(C)c2ccccc2)c1 | . | -1% | 2%[46.1 µM] | -16% | -11% | . | -5% | -19%
